Screens (PubChem BioAssay)
Beta apoptosis: blocks beta cell apoptosis | AID 435005 | 300,000 tested, 0.8% active | INS-1E cytokine-induced death, ATP luminescence, 48 h; percent of positive-control rescue, neutral wells zero | protection from apoptosis, % (test concentration not listed);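 active = all replicates at 75% or more, or half of them and the mean; inconclusive = half reach 75% but not the mean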;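 note: 0% = cytokine-treated negative control wells and 100% = positive control rescue; higher means more ATP so stronger rescue from cytokine killing; wells of about 40 µL received 100 nL stock; the first replicate is given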
T cruzi repl: T. cruzi replication inhibition. T. cruzi beta-gal in NIH3T3, luminescence, 90 h. inhibition, % (no concentration beside the values). 300,000 tested, 1.4% active;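 active = mean inhibition across valid replicates above about 55%, limit read from the data; inconclusive = mean below that limit but half or more replicates reach it; inactive = mean below it, under half of replicates reach it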;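 note: signal also drops with host cell toxicity which is not excluded here; 0% = plate median of DMSO wells and 100% = zero luminescence signal; higher percent means less beta-gal luminescence so fewer parasites; stock transfer was 50 nL into about 50 µL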
RanGTP-Impb inh: inhibitors of RanGTP-importin-beta interaction, primary screen, biochemical, FRET, CFP-Ran, YFP-importin-beta, homogeneous. cell-free CFP-Ran/YFP-importin-beta FRET ratio. inhibition, % (test concentration not listed). 300,000 tested, 1.1% active. AID 2216;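 active = most replicates above 15%; inconclusive = exactly half above 15%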;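 note: 0% = DMSO wells and 100% = Ran loaded with GDP instead of GTP; wells of about 40 µL received 100 nL stock; the first replicate is given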
LANA-H2B inh: blocks KSHV LANA binding to histone H2A/H2B. 320,000 tested, 0.6% active. Q9QR71. cell-free LANA-H2A/H2B peptide, fluorescence polarization. inhibition, % (no concentration beside the values); in the data active = inhibition mostly above about 10%, no sharp cut-off; inactive = mostly below about 6.7%;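 note: stock transfer was 7.5 nL into about 10 µL; 0% = median of vehicle wells and 100% = median of positive control wells; one replicate is shown; the record names a cut of 25% in any replicate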
Calb FLC: C. albicans growth modulation with fluconazole; C. albicans CaCi-2 (fluconazole-resistant clinical isolate) + fluconazole, Alamar Blue growth, 48 h; growth inhibition, % (test concentration not listed); 300,000 tested, 0.57% active; AID 1979;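 active = most replicates above 75%; inconclusive = exactly half above 75%; inactive = most below 75%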;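 note: all wells also contain fluconazole at 8 µg/ml as a sub-toxic cotreatment; 0% = median of DMSO wells and 100% = median of geldanamycin control wells; wells of about 8 µL received 7.5 nL stock; the first replicate is given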
UCH37 inh: human UCH37 deubiquitinating enzyme inhibition | Q9Y5K5 | purified proteasome/UCH37, Ub-AMC cleavage fluorescence | inhibition, % (concentration not given with the values) | 330,000 tested, 0.33% active;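 active = mean of two replicates above 20%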;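 note: 0% = compound-free wells with enzyme and 100% = wells lacking proteasome; stock transfer was 100 nL into about 20 µL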
Target sequence (Q9Y5K5 whole entry, looked up): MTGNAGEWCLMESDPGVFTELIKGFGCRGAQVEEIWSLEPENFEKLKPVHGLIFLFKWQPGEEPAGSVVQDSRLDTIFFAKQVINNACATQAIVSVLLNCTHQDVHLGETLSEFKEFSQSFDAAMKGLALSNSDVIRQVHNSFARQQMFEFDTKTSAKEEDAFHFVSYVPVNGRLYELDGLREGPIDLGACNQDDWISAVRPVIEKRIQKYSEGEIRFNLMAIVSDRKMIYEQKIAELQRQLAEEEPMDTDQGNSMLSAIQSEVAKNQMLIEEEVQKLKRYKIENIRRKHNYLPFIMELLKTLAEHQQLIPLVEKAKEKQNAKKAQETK
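Material: human UCH37 enzyme supplied as purified proteasome complex. Measure: % inhibition of Ub-AMC cleavage fluorescence. Medium: pH 7.4 Tris-HCl (50 mM) with ovalbumin, ATP-MgCl2, DTT. Times: 30 min preincubation with enzyme, 25 min cleavage at room temperature. Detection: AMC fluorescence intensity at 355/460 nm.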
B2AR ag: agonists of human beta-2 adrenergic receptor inducing internalization. P07550. 340,000 tested, 0.43% active. AID 504454. Am2.2-beta2AR cells, FAP receptor internalization, flow cytometry; reference of the scale not given here. response, % (concentration not given with the values);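 active = response above a set limit, near 3 SD of response in nonfluorescent compounds, cut at about 42% in these data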;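 note: stock transfer was 100 nL into about 11 µL; a reference agonist was the positive control; negative values mostly stem from fluorescent compounds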
Target sequence (P07550 whole entry, looked up): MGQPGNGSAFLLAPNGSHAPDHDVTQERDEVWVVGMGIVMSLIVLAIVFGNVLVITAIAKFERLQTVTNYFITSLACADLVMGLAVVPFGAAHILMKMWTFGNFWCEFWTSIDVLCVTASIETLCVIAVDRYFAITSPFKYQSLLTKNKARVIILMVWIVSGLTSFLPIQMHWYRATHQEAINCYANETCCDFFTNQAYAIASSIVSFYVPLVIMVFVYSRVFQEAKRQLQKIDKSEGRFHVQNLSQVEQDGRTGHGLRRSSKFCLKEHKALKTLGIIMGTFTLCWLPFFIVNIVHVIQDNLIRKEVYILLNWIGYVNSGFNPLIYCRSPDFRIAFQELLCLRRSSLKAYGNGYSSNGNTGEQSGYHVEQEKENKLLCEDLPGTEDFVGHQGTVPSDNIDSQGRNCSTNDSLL
Bfl-1 A1 inh: inhibitors of the anti-apoptotic protein A1, read as caspase activation; MEF A1-2A-BIM cells, Caspase-Glo 3/7 luminescence, 3 h; percent of clofoctol response, vehicle zero; 330,000 tested, 0.066% active; caspase activation, % (concentration not given with the values); AID 2462;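 active = over half of replicate activation scores above 10%, or exactly half above 10 with the replicate mean above 10; inconclusive = replicate mean below 10 yet half the replicates above 10; inactive = over half of replicates below 10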;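 note: wells of about 30 µL received 50 nL stock; many hits fall short of the cut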
* hit, by the source's call; ? = inconclusive; / = not tested or not shown.

SMILES	Beta apoptosis	T cruzi repl	RanGTP-Impb inh	LANA-H2B inh	Calb FLC	UCH37 inh	B2AR ag	Bfl-1 A1 inh
NNC(=O)Cn1c(-c2ccccn2)nc2ccccc21	-6	-8	-3.4	0.7	-6	-2.8	-3	1.0
Cc1ccc(S(=O)(=O)N2CCC(C(=O)N[C@H](C(=O)N3CCN(C)CC3)C(C)C)CC2)cc1	-8	1	2.6	-2.2	-8	1.5	-3	0.8
O=C(CSc1nc(SCC(=O)NCc2ccccc2)n(-c2ccccc2)n1)NCc1ccccc1	1	2	-1.3	-5.5	-1	1.9	5	0.9
COc1ccc(N=C2SC(C(=O)O)CC(=O)N2C)cc1 (configuration not stated)	1	-1	0.6	-9.7	/	0.3	-3	-0.1
Nc1ccc(S(=O)(=O)Nc2nccc(/C=C/c3ccc(Cl)cc3Cl)n2)cc1	2	4	2.1	-6.4	2	4.8	22	0.5
Cc1ccc([N+](=O)[O-])cc1NC(=O)c1ccc(-c2ccccc2)cc1	0	-1	-0.6	-3.9	5	-2.5	6	0.3
CS(=O)(=O)c1ccc(Cl)c(NC(=O)CCl)c1	-3	6	4.0	2.1	-2	5.2	-5	0.3
Cc1cc(C)n(-c2nnc(SCC(=O)NC3CCCC3)c3ccccc23)n1	-5	-13	-0.4	-0.3	-29	2.9	-4	0.8
Cc1cc(C)n2nc(SC(C)C(=O)N(C)C3CCCCC3)nc2n1 (configuration not stated)	-9	/	/	0.1	/	5.7	-9	2.0
CCOCC(=O)Nc1cc(C(=O)Nc2ccccc2)ccc1Cl	0	1	-1.8	-3.9	-11	-2.7	-1	-5.3
Cc1cccc(C(=O)N2CCC(N3CCC(C(=O)N4CCOCC4)CC3)CC2)c1	-4	-1	-0.5	-6.1	-5	4.3	-3	-0.9
CC(=O)Nc1sc(NC(=O)c2ccc(Cl)cc2)nc1-c1cccs1	-6	7	-2.7	0.5	7	-11	-9	-0.2
COc1ccc(CC(=O)OCC(=O)Nc2cccc(Cl)c2)cc1	-1	-9	2.9	/	2	0.8	-1	0.1
c1ccc(Cc2ccc(OCCn3ccnc3)cc2)cc1	8	28	0.4	-11	-29	-0.5	-12	-0.3
Cc1ccccc1Cn1nc(C)c(NC(=O)c2cc(CC(C)C)on2)c1C	-5	10	-0.5	-2.0	-3	1.2	16	-0.4
Cc1ccc(/C=C2\CCOC2=O)cc1	-2	-13	0.7	-2.2	-6	3.5	-2	0.8
COc1ccc(N2CC(O)(c3ccc(F)cc3)[N+]3=C2CCCC3)cc1 (configuration not stated)	-7	-23	-0.2	-1.6	-13	-0.8	-5	0.7
CN1CCC(=NNC(=O)CN(c2cccc(Br)c2)S(C)(=O)=O)CC1	-6	-5	0.4	-4.6	-12	1.1	-5	-1.2
CCC(=O)NCCn1c(C)cc2ccccc21	2	-2	-3.2	1.8	-1	4.2	-9	0.4
N#CCc1nn(-c2ccccc2)c2ncnc(N)c12	1	10	3.0	0.3	-3	/	-4	-0.8
Cc1nc(NC(=O)/C=C/c2ccc(C(C)(C)C)cc2)sc1C(=O)N(C)C	-3	-34	?	-5.8	7	-80	2	0.0
CCCCn1c(N)c(N(CCOC)C(=O)CSCc2ccc(C)cc2)c(=O)[nH]c1=O	-1	-7	-1.1	-8.2	0	-2.8	-3	0.3
CCOC(=O)Cc1csc(SCC(=O)Nc2ccc3[nH]c(=O)[nH]c3c2)n1	-2	/	/	/	/	3.6	10	0.4
CCCCCC(=O)NC(=S)Nc1ccc(NC(=O)c2ccco2)cc1	4	-21	3.6	7.3	-21	1.9	16	1.0
CCOCCCNc1ccc(N2C(=O)C3CCCCC3C2=O)cc1[N+](=O)[O-] (configuration not stated)	3	0	5.3	0.3	-4	5.5	3	-0.5
c1nc(NCC2CCCO2)c2[nH]cnc2n1 (configuration not stated)	-11	-6	-1.9	3.2	11	2.5	4	-0.5
CCN(CC)c1ccc(NC(=O)COC(=O)C23CCC(=O)N2c2ccccc2S3)cc1 (configuration not stated)	-3	-8	-0.1	-1.5	-9	4.3	6	0.1
NC(N)=N/N=C/c1ccc(Cl)c([N+](=O)[O-])c1	3	61*	2.3	-0.9	-1	/	24	-0.5
CCC1CN(C(=O)N2CCC(C(=O)NCc3cc(OC)c(OC)c(OC)c3)CC2)c2ccccc2O1 (configuration not stated)	6	-4	-1.7	3.8	35	3.9	1	0.5
O=C(CN1C(=O)CC(c2ccccc2)=Nc2ccccc21)NCc1ccco1	-10	5	0.8	-0.6	5	0.0	-16	-0.1
CS(=O)(=O)N(Cc1cc2ccccc2[nH]c1=O)C1CCCCC1	-2	7	-0.6	0.2	4	-1.2	-6	0.8
CC(NC(=O)[C@@H](NC(=O)[C@@H]1Cc2ccccc2CN1)C(C)C)c1ccccc1 (some centres not stated)	-3	-17	2.2	7.3	-18	5.0	-6	-0.3
COC(=O)Cc1ccc(NC(=O)c2ccc3c(c2)C(=O)N(Cc2ccco2)C3=O)cc1	5	-19	0.9	-3.6	-1	4.9	-3	0.3
CCCNC(=O)N1CCC(n2nccc2NC(=O)CCOc2ccccc2)CC1	-7	-8	3.7	-6.6	5	-0.2	-5	-0.1
COc1cccc(C(C[N+](=O)[O-])c2c(C)[nH]n(-c3ccccc3)c2=O)c1 (configuration not stated)	6	-2	6.3	-3.3	-20	/	8	2.5
COc1ccc(NC(=O)CN2CCN(Cc3ccccc3)CC2)cc1	1	12	0.7	-0.3	-3	1.1	0	-0.8
CCOc1ccc(OCCN2C(=O)NC3(CCCc4ccccc43)C2=O)cc1 (configuration not stated)	2	0	1.0	2.6	-3	1.9	1	1.3
COC(=O)c1ccc(-c2noc(CN3C[C@H]4CC[C@H]3C4)n2)cc1	-5	-8	2.0	1.2	4	0.8	5	1.3
COc1ccc(C2=NCCn3nc4ccccc4c32)cc1	-5	/	/	-3.4	/	3.0	-6	0.1
O=C(COC(=O)/C=C/c1ccccc1Cl)NCc1ccccc1	-6	-17	5.2	1.0	4	-0.7	-3	-0.5
COC(=O)c1cc(-c2c(C)oc3cc(OC(C)C)ccc3c2=O)c(C)o1	3	25	?	4.2	17	3.8	7	0.4
CC(C)CC(C(=O)Nc1ccc2c(c1)OCCO2)N1C(=O)c2ccccc2C1=O (configuration not stated)	-7	/	5.5	-0.4	2	0.6	-1	-0.6
CCCCc1ccc(-n2c(Cc3cccs3)n[nH]c2=S)cc1	6	14	2.8	-1.2	-6	0.2	-5	-0.8
O=C1C2C3C=CC(C3)C2C(=O)N1/N=C/c1cc(Br)cc([N+](=O)[O-])c1O (configuration not stated)	-3	42	?	5.0	17	/	2	0.6
CC(C)=CCC(C)(C)/C=N/NC(N)=O	-2	6	3.3	-1.7	-16	/	1	-0.2
COCc1ccc(C(=O)N2CCN(CC(=O)N3CCCC3)CC2)cc1	-2	/	/	1.4	/	4.4	-4	0.5
CCOC(=O)N1CCN(c2c(N3CCN(c4ccccc4OC)CC3)c(=O)c2=O)CC1	-2	-8	-1.5	-0.1	6	7.5	5	0.0
O=C(c1ccco1)N1CCN(C(=O)c2cc(-c3ccccc3)nc3ccccc23)CC1	-2	12	-1.3	-0.8	2	3.6	-8	0.0
CCn1cnc2c(Nc3cccc(Cl)c3)nc(C#N)nc21	-7	/	/	2.4	/	3.8	-6	-0.3
CCn1cc(S(=O)(=O)N2CCN(Cc3ccc(F)cc3)CC2)cn1	-1	1	0.1	-3.6	-5	1.0	-6	-0.8
CCOCCc1nnc(NC(=O)COC)s1	-4	12	3.6	-1.1	-5	5.7	6	0.1
Clc1ccc2nnnc(-c3ccccc3)c2c1	99*	21	0.2	/	52	1.3	-5	0.4
COc1ccccc1NCC(=O)N/N=C/c1c(O)ccc2ccccc12	77*	-5	-4.1	-2.7	-3	/	13	0.6
CCc1cc(=O)oc2cc3occ(-c4ccc(OC)c(F)c4)c3cc12	23	-3	-1.0	-2.8	-6	-11	12	0.1
CCC(C)[C@H](NC(=O)C1(c2ccccc2)CCN(C(=O)OC(C)(C)C)CC1)C(=O)N[C@@H](C(=O)O)c1ccccc1 (some centres not stated)	/	6	?	-0.1	5	4.6	10	0.6
COc1ccccc1C(=O)Nc1ccccc1C(=O)N1C(C)CCCC1C (configuration not stated)	-5	-8	0.1	2.4	17	0.3	-4	0.2
CC(=O)c1cc(-c2ccccc2)n(CCC(=O)NC2CCCC2)c1C	0	-7	-0.2	-5.4	-1	0.1	-2	0.5
N#Cc1cc([N+](=O)[O-])ccc1Oc1cccc(/C=N/NC(=O)c2ccc(Cl)cc2)c1	-7	75*	-2.7	-2.5	2	/	-3	-0.3
Cc1c(OC(C)C(=O)NC(Cc2c[nH]c3ccc(O)cc23)C(=O)O)ccc2c1oc(=O)c1ccccc12 (configuration not stated)	-5	-5	5.0	0.3	-5	-31	-6	0.2
CCCc1[nH]nc2c1C(c1cc(OC)ccc1F)C(C#N)=C(N)O2 (configuration not stated)	-3	-4	1.4	4.0	7	2.4	-2	0.0

A portion taken from the entries so far:
SMILES	Beta apoptosis	T cruzi repl	RanGTP-Impb inh	LANA-H2B inh	Calb FLC	UCH37 inh	B2AR ag	Bfl-1 A1 inh
COCc1ccc(C(=O)N2CCN(CC(=O)N3CCCC3)CC2)cc1	-2	/	/	1.4	/	4.4	-4	0.5
CCOC(=O)N1CCN(c2c(N3CCN(c4ccccc4OC)CC3)c(=O)c2=O)CC1	-2	-8	-1.5	-0.1	6	7.5	5	0.0

Remaining list, next part.
SMILES	Beta apoptosis	T cruzi repl	RanGTP-Impb inh	LANA-H2B inh	Calb FLC	UCH37 inh	B2AR ag	Bfl-1 A1 inh
COC(=O)c1c(-c2ccccc2Cl)noc1-c1cnc(N)nc1C(F)(F)F	1	-4	-0.5	5.8	-3	-1.9	-1	-0.1
Brc1cccc(-c2nnco2)c1	-3	-11	?	-5.8	8	0.8	-2	-0.2
CCn1c(CSc2nc3ccccc3s2)nnc1SCC(=O)c1ccc(O)c(O)c1	/	-22	-7.4	-3.0	105*	5.6	1	-0.3
COc1cc(C2C(C#N)=C(N)Oc3c2oc(CO)cc3=O)cc(OC)c1OC (configuration not stated)	-2	-34	1.7	-1.2	9	2.6	-1	-0.1
O=S(=O)(Cc1ccccc1Cl)NCCOc1ccccc1	-4	3	0.3	0.9	-3	6.1	0	0.4
Cc1ccc(C(=O)Nc2ccc(C(=O)N/N=C/c3c[nH]c4ccccc34)cc2)cc1	18	-31	7.2	1.1	-5	/	25	0.1
O=C1N/C(=N/S(=O)(=O)Cc2ccccc2)S/C1=C/c1ccc2c(c1)OCO2	-3	24	-0.8	3.7	-3	0.6	5	-0.3
COc1ccc(NC(=O)c2cc(=O)c3ccccc3o2)cn1	1	/	3.0	3.1	-1	1.7	-7	-0.1
CCCN(C(=O)c1ccc(N(C)S(=O)(=O)c2ccc(C)cc2)cc1)C1CCS(=O)(=O)C1 (configuration not stated)	/	-5	3.2	4.6	4	-0.9	-6	0.4
O=C(OCc1cncs1)c1ccccc1	1	-8	?	3.7	6	1.7	9	0.9
Cc1cccc(NC(=O)/C(C#N)=C/c2ccccc2Cl)n1	-4	-21	8.8	8.5	-1	0.0	11	1.2
Cc1nnc(-c2cnn(-c3ccccc3)c2N)n1Cc1ccncc1	-1	-12	2.0	-0.4	-4	0.4	-10	-1.0
